Screening results from PubChem.
VDR inhibitor – inhibitors of human vitamin D receptor; P11473; Potency, µM, inactives show max response, negative = inhibition, actives largely listed as inhibitors; 400,000 compounds, 0.93% hits; VDR-SRC2-3 peptide fluorescence polarization, 2 h; active means well fitted inhibition curve with a large enough effect; inconclusive means small, poorly fitted or top-dose-only effect, or another doubt; inactive means no such curve, though single readings can be large or run the other way; further: series mostly up to about 120 µM
Target sequence (P11473 whole entry, looked up): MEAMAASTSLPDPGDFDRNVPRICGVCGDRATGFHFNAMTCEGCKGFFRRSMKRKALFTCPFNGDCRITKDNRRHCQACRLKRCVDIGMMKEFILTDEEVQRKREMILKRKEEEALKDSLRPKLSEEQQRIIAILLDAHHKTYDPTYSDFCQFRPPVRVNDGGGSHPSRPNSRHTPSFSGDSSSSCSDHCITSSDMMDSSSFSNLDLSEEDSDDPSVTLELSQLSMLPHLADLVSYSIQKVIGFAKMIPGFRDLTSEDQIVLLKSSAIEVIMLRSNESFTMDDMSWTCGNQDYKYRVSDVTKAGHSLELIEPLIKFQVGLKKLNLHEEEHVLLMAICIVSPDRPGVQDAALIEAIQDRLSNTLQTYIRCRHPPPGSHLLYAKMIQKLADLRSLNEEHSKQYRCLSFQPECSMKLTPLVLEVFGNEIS
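Compounds are added to VDR with labelled SRC2-3 coactivator peptide and held 2 h at room temperature. Inhibition of the VDR–peptide interaction is then read as a change in fluorescence polarization.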
An asterisk follows results filed as active; ? = inconclusive; & = joins results of further samples. On the % scale 0 is the no-effect control and ±100 the full control effect; potency means the concentration at half of the fitted maximal effect.

VDR inhibitor | compound
? | O=C(O)c1cccc(CN2C(=O)S/C(=C/c3ccccc3[N+](=O)[O-])C2=O)c1
-13.0% | O=C(CNS(=O)(=O)c1ccc(Cl)c(C(F)(F)F)c1)NC1CCCCCC1
-3.1% | O=C(OCC(=O)N1CCCC1)c1cccc(Br)c1
-9.9% | CN(C)CC(C)(C)CNC(=O)CC1C(=O)NCCN1Cc1ccc(-c2ccccc2)cc1 (configuration not stated)
19.7% | CN(C)S(=O)(=O)c1cccc(NC(=O)C2CCN(S(=O)(=O)c3cccs3)CC2)c1
-4.8% | COc1ccccc1CN1CC(C(=O)NCc2cc(C(C)C)no2)CCC1=O (configuration not stated)
5.4% | Cc1c(NC(=O)CN2CCN(c3ccc(F)cc3)CC2)c(=O)n(-c2ccccc2)n1C
-4.1% | CC(C)(C)c1ccc(C(=O)Nc2ccc(CC(=O)O)cc2)o1
-5.1% | O=C(Cn1c(-c2ccccn2)nc2ccccc21)NCCN1CCOCC1
18.7% | CN1C(C(=O)NC(C)(C)C)=CC(c2ccc3c(c2)OCO3)=NS1(=O)=O

More entries.
VDR inhibitor | compound
-1.9% | COc1ccc(CNCCS(=O)(=O)NCc2ccccc2)cc1
-6.0% | O=C(Nc1nnc(S(=O)(=O)N2CCN(c3ccc(F)cc3)CC2)s1)c1ccc(Cl)cc1
2.2% | COc1ccc(CCNC(=S)NC2CCN(Cc3ccccc3)CC2)cc1OC
-6.4% | Cc1nc2sc(C(c3ccco3)N3CCc4ccccc4C3)c(O)n2n1 (configuration not stated)
6.0% | Cc1noc(C)c1COc1cccc(C(=O)N2CCc3ccccc32)c1
9.1% | COCCc1nn2c(=O)cc(COC(=O)c3ccc(Br)cc3)nc2s1
-6.7% | Cc1ccc2c(c1)c1cccc3c1n2CCN3CCC(N)=O
5.3% | O=C(COC(=O)c1cccnc1Cl)c1ccc(Cl)s1
-13.1% | C#CCOCCOCCOCCNc1nc(N2CCN(C(=O)[C@H](CCCCN)n3cc([C@@H](N)CO)nn3)CC2)nc(N2CCN(C(=O)[C@H](Cc3ccc(O)cc3)n3cc([C@@H](N)CC(C)C)nn3)CC2)n1
9.3% | Cn1c(SCc2ccccc2)nnc1-c1ccc(O)cc1

5 structures out of the list, arranged by molecular weight, ascending:
VDR inhibitor | compound
9.3% | Cn1c(SCc2ccccc2)nnc1-c1ccc(O)cc1
5.3% | O=C(COC(=O)c1cccnc1Cl)c1ccc(Cl)s1
-1.9% | COc1ccc(CNCCS(=O)(=O)NCc2ccccc2)cc1
2.2% | COc1ccc(CCNC(=S)NC2CCN(Cc3ccccc3)CC2)cc1OC
-13.1% | C#CCOCCOCCOCCNc1nc(N2CCN(C(=O)[C@H](CCCCN)n3cc([C@@H](N)CO)nn3)CC2)nc(N2CCN(C(=O)[C@H](Cc3ccc(O)cc3)n3cc([C@@H](N)CC(C)C)nn3)CC2)n1

Later entries.
VDR inhibitor | compound
5.7% | O=C(NCC(F)(F)F)Nc1ccccn1
8.9% | COc1ccc(Nc2ccc(C(N)=O)cc2[N+](=O)[O-])cc1
7.1% | CCC(=O)OCn1nnc2ccccc2c1=O
18.3% | CCOc1cccc(C(=O)NC(=S)Nc2ccc(N3CCN(CC)CC3)cc2)c1
16.1% | Cc1ccc(CCNC(=O)c2c[nH]c3ccc(S(=O)(=O)Nc4ccc(C)cc4C)cc3c2=O)cc1
-1.0% | O=C(CCNC(=O)c1ccc([N+](=O)[O-])cc1)Nc1cccc(S(=O)(=O)N2CCOCC2)c1
-6.9% | Cc1ccc(CNC(=O)CCS(=O)(=O)c2cc(Br)cc3c2N(C(=O)C2CC2)CC3)cc1
-1.4% | CSCCC(NC(=O)c1c(C)oc2c1CCCC2)C(=O)O (configuration not stated)
-16.9% | Cc1c(NC(=O)C23CC4CC(CC(C4)C2)C3)c(=O)n(-c2ccccc2)n1C
12.1% | CCN(CC(=O)NC1CCCCCC1)S(=O)(=O)c1ccccc1

(more compounds)
VDR inhibitor | compound
9.5% | C=C(C)C1Cc2c(C)nn(-c3ccccc3)c2C1 (configuration not stated)
0.6% | CCCNc1c(N)c(=O)c1=O
-0.9% | O=C(CCc1nnc(CCCCc2ccccc2)o1)N1CCCC(O)C1 (configuration not stated)
-15.1% | COC(=O)C1ON2OC(C(=O)OC)C(C(=O)OC)C2C1CC(C)=O (configuration not stated)
-0.1% | COc1ccc(C(C)=O)cc1CSc1nnc(-c2ccncc2)o1
5.5% | COc1ccc(NC2=Nc3ccccc3N[C@@]23C[C@H]2CCCC(=O)N4CC[C@@H](C3)[C@@H]24)cc1
-22.0% | CC(C)(C)NC(=O)C(c1ccncc1)N(C(=O)Cn1nnc(-c2ccc(F)cc2)n1)c1ccc(F)cc1 (configuration not stated)
-4.4% | CCCC1=[N+](CC(=O)c2ccc(C)cc2)CCn2cccc21
4.7% | Cc1ccc(-c2nnc(N)o2)cc1
? | COC(=O)c1ccc(Oc2cc(C)nc(SC)n2)cc1

Continuation.
VDR inhibitor | compound
-11.0% | CCOC(=O)N1CCN(C(=O)/C(=C/c2cccc3ccccc23)NC(=O)c2ccc(OC)cc2)CC1
1.4% | O=c1[nH]cnc(O)c1C(c1cccc([N+](=O)[O-])c1)c1c(O)nc[nH]c1=O
4.9% | O=C(C[C@H]1C[C@H](C(=O)N2CCCCC2)[C@@]2(CCc3ccccc3)c3[nH]c4ccc(Cl)cc4c3CCN2C1=O)NCCCn1ccnc1
-13.8% | CC1(C)CC(=O)C=C(c2ccc(Oc3ccccc3)cc2)C1
-10.4% | CSC1SCC2C(=O)N(C)C(C(C)C)C(=O)OCC(NC(=O)c3cnc4ccccc4n3)C(=O)NC(C)C(=O)N(C)C1C(=O)N(C)C(C(C)C)C(=O)OCC(NC(=O)c1cnc3ccccc3n1)C(=O)NC(C)C(=O)N2C (configuration not stated)
-29.6% | CCOc1ccccc1C(=O)NCC(=O)OCCCOC(=O)CNC(=O)c1ccccc1OCC
1.8% | OC1(c2ccccc2)C/C(=N\n2cnnc2)C=C1c1ccccc1 (configuration not stated)
-10.4% | COc1ccc(C2CC(=O)N(Cc3ccc(F)cc3)c3ccccc3S2)cc1 (configuration not stated)
-10.1% | Cc1ccc(S(=O)(=O)NC2CCSC2=O)cc1C (configuration not stated)
-19.6% | CCOc1cccc2cc(C(=O)NCc3ccccc3)c(=N)oc12

(next part)
VDR inhibitor | compound
-21.0% | COc1cccc(NC(=O)C2C3C=CC4(O3)C2C(=O)N(C2CC2)C4C(=O)NC2CCCCC2C)c1 (configuration not stated)
-7.1% | CN(Cc1nc(-c2cccs2)no1)CC1COCCO1 (configuration not stated)
-22.9% | CC(C)(C)C1CCC(=NNC(=O)CC(=O)NCc2ccccc2)CC1 (configuration not stated)
-25.9%&7.3% | Cc1ncc(CO)c2c1Oc1nc(-c3ccccc3)nc(SCC(=O)N3CCCCC3)c1C2
-23.1% | CC(=O)N1CCc2cc(S(=O)(=O)NC(Cc3ccccc3)C(=O)NCCN3CCCCC3C)ccc21 (configuration not stated)
? | Cn1c(=O)c2[nH]c(C3CC3)nc2n(C)c1=O
-20.4% | COc1ccc(C(=O)N2CCN(c3ccccc3Cl)CC2)cc1S(=O)(=O)NC1CC1
-17.5% | C/C(=N\NC(=O)c1ccc([N+](=O)[O-])cc1)c1c(O)cc(C)oc1=O
-23.7% | O=C(CN(Cc1ccco1)Cc1cccs1)N1CCN(S(=O)(=O)c2cccc(F)c2)CC1
0.2% | Cc1c(-c2ccc(O)cc2)nn(-c2ccc(O)cc2)c1-c1ccc(OCCN2CCCCC2)cc1

Following part.
VDR inhibitor | compound
5.8% | COc1ccc(CNC(=O)COC(=O)C2CCC(C(C)(C)C)CC2)cc1 (configuration not stated)
3.1% | COc1ccc(Nc2nc3ccccc3c(=O)s2)c(OC)c1
-6.5% | Cc1cccc(NC(=O)CSc2nnc(NC(=O)c3ccco3)s2)c1
4.3% | c1csc(CSc2nnc3sc4ccccc4n23)c1
-0.6% | O=C(CN1CCOCC1)Nc1cccc(C(F)(F)F)c1
-2.5% | CCOC(=O)N1CCC(NCCNC(=O)c2ccc(F)c(F)c2)CC1
-1.1% | Cc1cccc(C(=O)Nc2nnc(-c3ccncc3)o2)c1
1.2% | COc1cc(/C=N/NC(=O)CN(Cc2ccco2)S(=O)(=O)c2ccccc2)ccc1O
1.9% | N/C(=N\OC(=O)c1ccc([N+](=O)[O-])cc1)c1ccccn1
-10.0% | Cc1ccc(/C=C/C(=O)O)cc1S(=O)(=O)NCCCC(=O)O

More compounds
VDR inhibitor | compound
-18.2% | CCNc1ncc2nc(-c3ccc(F)cc3)c(=O)n(-c3ccccc3)c2n1
-0.4% | N#CCCCSc1nnc(-c2ccc(Cl)cc2)n1-c1ccccc1
1.3% | CCC1CCCCN1C(=O)COc1ccc2c(c1)OCO2 (configuration not stated)
-13.1% | C/C(N)=C(/C#N)C(=O)COC(=O)C1=NN(c2ccccc2)C(=O)CC1
-15.6% | COc1ccc(C2CC(=O)c3c([nH]c(C(=O)OC4CCC(C)CC4)c3C)C2)cc1OC (configuration not stated)
-0.9% | CCC(C)(C)NC(=O)C(c1ccccn1)N(C(=O)c1csnn1)c1ccc(C)cc1 (configuration not stated)
? | O=C(NCCc1cn[nH]c1)C1CCC(=O)N(CCc2cccc(F)c2)C1 (configuration not stated)
-5.6% | CC(=O)Nc1ccc(NC(=O)Nc2ccccc2)cc1
20µM* | O=C1CC(c2ccc3c(c2)OCCO3)Oc2ccc([N+](=O)[O-])cc21 (configuration not stated)
-6.7% | COc1ccc2[nH]c3c(NCCCN4CCCC4=O)ncnc3c2c1

Next results.
VDR inhibitor | compound
-10.7% | Cc1cc(SCn2nnc3ccccc3c2=O)nc2ccccc12
-11.5% | Cc1nn(-c2ccccc2)c(Cl)c1C1C(C#N)=C(N)Oc2c1c(C)nn2-c1ccccc1 (configuration not stated)
8.8% | COc1ccc(N2C(=O)/C(=C/N(C)C)NC2=S)cc1
-6.1% | CCOC(=O)N1CCN(C(=O)Cn2ncc3c2-c2ccccc2OC3)CC1
4.6% | CN(CCC#N)C(=O)CC(Cc1ccccc1)C1CCOC(C)(C)C1 (configuration not stated)
-10.0% | CC(C)CC(=O)N1CCN(Cc2ccc(C(F)(F)F)cc2)CC1
7.8% | N=c1c2c(ncn1CCN1CCOCC1)Oc1cc(O)ccc1C2c1ccccc1 (configuration not stated)
-23.4% | CCS(=O)(=O)c1ccc2oc(=O)c(/C=C(\O)c3ccc(Cl)cc3)nc2c1
-9.7% | CCC(=O)Oc1ccc(C(=O)Nc2cccc(NC(=O)c3ccco3)c2)cc1
14.5% | CC(c1ccccc1)c1nnc(NC(=O)c2ccc3c(c2)OCO3)s1 (configuration not stated)

Other entries follow.
VDR inhibitor | compound
? | O=C(Nc1cccc2nsnc12)c1ccc(-c2ccc(Br)cc2)o1
-6.2% | Cc1ccc(CNCC(O)c2ccccc2)s1 (configuration not stated)
-3.1% | O=C(O)Cc1c(C(=O)O)nnn1-c1cccc(C(F)(F)F)c1
-3.8% | CCc1noc(C)c1C(=O)OC(C)C(=O)Nc1ccccc1OC (configuration not stated)
-18.9% | N#CCCN(Cc1cccs1)C(=O)Nc1ccccc1
-20.2% | CO/N=C/c1ccc(N2CCOCC2)c([N+](=O)[O-])c1
-9.0% | O=C(Nc1ccccc1)ON=C1c2ccccc2-c2ccccc21
8.5% | O=[N+]([O-])c1ccc(-c2ccc(/C=N/Nc3nc(N4CCCCC4)nc(N4CCCCC4)n3)o2)cc1
7.7% | C/C(NC(=O)c1ccccc1F)=C1\C(=O)C[C@@H]2[C@H]1C2(C)C
-5.1% | CCCCN(CCCC)CCNC(=O)c1cn(C)c2ccc(S(=O)(=O)N(C)C3CCCCC3)cc2c1=O

Continuation:
VDR inhibitor | compound
-2.1% | O=C1C=C(NNC(=O)c2ccccc2Br)CCC1
2.2% | N#CCCN(C(=O)COC(=O)c1ccc2c(c1)OCCO2)c1ccccc1
-17.5% | Cc1nn(-c2ccccc2)c(Cl)c1/C=C1\C(=O)N(C)C(=S)N1C
-12.2% | Cc1ccc(S(=O)(=O)NCc2ccccc2)cc1C(=O)N1CCCCCCC1
-3.1% | CC1(C)CC(=O)C(N=Nc2cccc(S(=O)(=O)N3CCOCC3)c2)=C(O)C1
10.0% | c1ccc(CCCCc2ccccn2)cc1
-2.2% | COc1ccccc1OCc1ccc(C(=O)N(C)C)o1
-6.5% | CNC(=O)C1Cc2ccccc2CN1S(=O)(=O)c1cccs1 (configuration not stated)
? | CCOc1cc(Br)cc(/C=C2\SC(=Nc3ccccc3)NC2=O)c1O
4.4% | COCCNC(=O)NC(=O)COC(=O)c1cc([N+](=O)[O-])ccc1Sc1nc(C)cs1

Brought forward from above: four compounds, then new ones.
VDR inhibitor | compound
-2.2% | COc1ccccc1OCc1ccc(C(=O)N(C)C)o1
-6.5% | CNC(=O)C1Cc2ccccc2CN1S(=O)(=O)c1cccs1 (configuration not stated)
? | CCOc1cc(Br)cc(/C=C2\SC(=Nc3ccccc3)NC2=O)c1O
4.4% | COCCNC(=O)NC(=O)COC(=O)c1cc([N+](=O)[O-])ccc1Sc1nc(C)cs1
6.3% | O=C(CN(CC1CCCO1)C(=O)CNS(=O)(=O)c1ccccc1)NCc1ccc(F)cc1 (configuration not stated)
-7.0% | COCCN(C(=O)COC(=O)c1ccc(-c2ccccc2)cc1)c1c(N)n(Cc2ccccc2)c(=O)[nH]c1=O
12.1% | COc1ccc(Cc2nc3ccc(C(=O)NCCc4ccccc4)cc3o2)cc1
-12.9% | C[C@H](CO)N1C[C@H](C)[C@@H](CN(C)S(C)(=O)=O)Oc2c(NC(=O)Nc3ccc4c(c3)OCO4)cccc2C1=O
1.9% | COCCCNc1nc(N)c([N+](=O)[O-])c(Nc2ccccc2OC)n1
2.4%&-11.3% | Cn1cc(C(=O)Nc2ccc(C#N)cc2)c2ccccc2c1=O
19.7% | CCn1c(CN2CCCCC2)nc2cc(NC(=O)COc3ccc(C(C)(C)C)cc3)ccc21
-12.6% | CCCn1c(N)c(N(CCOC)C(=O)c2cccc(S(=O)(=O)N3CCCc4ccccc43)c2)c(=O)[nH]c1=O
0.5% | Cc1nc(-c2ccc(S(=O)(=O)N(Cc3ccccc3)C(C)C)cc2)co1
0.8% | O=C(Cn1c(=O)sc2ccccc21)Nc1ccc(S(=O)(=O)N2CCCCC2)cc1

Only part of the results is shown (hit frequency here may not be typical).
